Screening data (PubChem BioAssay)
Mtb growth: Mycobacterium tuberculosis H37Rv growth inhibition, cell based, confirmatory dose response (AID 1949). one-dose inhibition, % at 10 µg/mL; IC50 in µg/mL for titrated hits. actives 1.6% (n = 100,000). most inactive calls were filed without a number and no value below 0 was filed. M. tuberculosis H37Rv growth inhibition;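 active = confirmed in a dose series; inconclusive = about 50% or more but not retested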;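 also: bacteria grown 7 days with compound before Alamar blue readout; 0% = untreated bacteria and 100% = reference antibiotic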
Numbers without * were called inactive; i = inactive; ? = inconclusive. Some of the compounds tested; rates above refer to the full screens.

compound,Mtb growth
CCOC(=O)C1CCCN(CCC(=O)Nc2cc(C)cc(C)c2)C1 (stereo not given),i
CNC(=S)Nc1ccc(I)cc1,i
CCOC(=O)CCCSc1nc2sc3c(c2c(=O)[nH]1)CCC3,i
Cc1ccn(C(=O)c2ccc(NC(=O)C3CCCCC3)cc2)n1,2%
CCn1c(SC(C)C(=O)N2CCOCC2)nc2ccc(I)cc2c1=O (stereo not given),i
O=C(Nc1ccccc1Cl)c1c2c(nc3ccccc13)CCCC2,18%
Cc1ccc(-c2nc3ccccc3o2)cc1NC(=O)CCc1ccccc1,i
O=C(CSc1nc2ccccc2[nH]1)N1CCCCC1,i
COc1cccc(S(=O)(=O)N2CCCC2)c1,i
COc1ccc(OC)c(N(CC(=O)NC2CCCCC2)S(=O)(=O)c2ccccc2)c1,i
COC(=O)c1c(NC(=O)c2ccc(C)c(C)c2)sc2c1CCC2,0%
Cc1ccc(N(Cc2ccco2)C(=O)c2cccc(S(=O)(=O)N(C)C)c2)cc1,4%
S=C(NCCc1ccccc1)Nc1ccc2c(c1)OCCO2,i
O=C(CSCc1ccc(Cl)c(Cl)c1)Nc1c[nH]c(=O)[nH]c1=O,1%
Cc1cccc(OCc2nc(-c3ccccc3Cl)no2)c1,6%
Cc1cccc(-c2nc3ccccc3c(=O)o2)c1,i
CC(NC(=S)NNS(=O)(=O)c1ccc(C(C)(C)C)cc1)c1ccccc1 (stereo not given),i
CCC(C)(C)NS(=O)(=O)c1ccc(Cl)cc1,i
N#Cc1c(C(F)(F)F)cc(Cc2ccccc2)nc1SCC(=O)NC1CC1,i
Cc1cccc(C(=O)Nc2cc(C(C)C)c(O)cc2C)c1,i
COCCNC(=O)c1ccc(CN(c2ccccc2)S(=O)(=O)c2ccccc2)cc1,i
CCNc1nc(NCC)nc(Oc2ccc(C=O)cc2)n1,i
O=C(NC(c1ccccc1)c1ccccc1)c1ccccc1I,i
CCOC(=O)N1CCN(C(=O)CN(C)S(=O)(=O)c2ccc(Br)cc2)CC1,1%
COc1ccccc1C(=O)Nc1cc2ccccc2oc1=O,i
Cc1ccc(NC(=O)C(=O)NCc2ccc(C(C)C)cc2)cc1,2%
CCc1ccccc1NC(=O)CSc1nnc(-c2ccc(Cl)cc2)n1-c1ccc(OC)cc1,i
CC(OC(=O)c1cc(=O)[nH]c2ccccc12)c1ccccc1 (stereo not given),i
CC(=O)Nc1c(C(=O)N2CCCCC2)cnn1-c1ccccc1Cl,i
O=C(Nc1ccccc1OC(F)F)c1ccc2c(c1)OCO2,5%
COC(=O)c1ccc(C(=O)OC)c(NC(=O)c2cccc(F)c2)c1,i
CC(C)c1ccc(OCC(=O)Nc2cccc3c2CCCC3)cc1,i
COCCNC(=O)c1c(NC(=O)COc2c(C)cccc2C)sc2c1CCCC2,0%
COc1ccccc1C1C2=C(CCCC2=O)Nc2[nH]c(=S)[nH]c(=O)c21 (stereo not given),i
Cc1ccc(S(=O)(=O)N2CCN(Cc3csc(C)n3)CC2)cc1,1%
CCCCC(=O)Nc1ccc(NC(=S)NC(=O)c2cc3ccccc3o2)cc1OC,i
O=c1c2ccccc2nc2nc(-c3ccccc3)cc(-c3ccccc3)n12,i
O=S(=O)(Nc1ccc(F)cc1)c1ccc(Oc2ccccc2Cl)cc1,7%
COC(=O)c1cc(OC)c(OC)cc1NC(=S)Nc1cccc(C)c1,i
O=c1c2ccccc2nnn1Cc1c(F)cccc1Cl,i
CCOC(=O)N1CCN(C(=O)CN(c2cccc(Br)c2)S(C)(=O)=O)CC1,i
COC(=O)c1ccc(OCC(O)CN2CCN(c3cc(Cl)ccc3C)CC2)cc1 (stereo not given),5.1µg/mL*
S=C(Nc1ccccc1Cl)NC1CCCCCC1,i
O=S(=O)(Cc1ccccc1)Nc1ccccn1,6%
Cc1cc(C)c(NC(=O)Cn2nnc(-c3ccccc3)n2)c(C)c1,i
Cc1occc1C(=O)Nc1cc(Cl)ccc1Cl,i
CCOCCn1c(Cc2ccccc2)nc2ccccc21,6%
FC(F)(F)c1ccc(N2CCc3ccccc3C2)nc1,i
COC(=O)Cc1cnc(NC(=O)C(C)(C)Oc2ccc(Cl)cc2)s1,i
Cc1cc(C)nc(NC(=S)Nc2ccc(Cl)c(Cl)c2)n1,i

7 records picked at random from those above, as already listed:
compound,Mtb growth
S=C(Nc1ccccc1Cl)NC1CCCCCC1,i
Cc1cc(C)c(NC(=O)Cn2nnc(-c3ccccc3)n2)c(C)c1,i
FC(F)(F)c1ccc(N2CCc3ccccc3C2)nc1,i
CCOCCn1c(Cc2ccccc2)nc2ccccc21,6%
O=S(=O)(Cc1ccccc1)Nc1ccccn1,6%
CCOC(=O)N1CCN(C(=O)CN(c2cccc(Br)c2)S(C)(=O)=O)CC1,i
COC(=O)c1ccc(OCC(O)CN2CCN(c3cc(Cl)ccc3C)CC2)cc1 (stereo not given),5.1µg/mL*

Six successive entries already listed:
compound,Mtb growth
CCOC(=O)N1CCN(C(=O)CN(c2cccc(Br)c2)S(C)(=O)=O)CC1,i
COC(=O)c1ccc(OCC(O)CN2CCN(c3cc(Cl)ccc3C)CC2)cc1 (stereo not given),5.1µg/mL*
S=C(Nc1ccccc1Cl)NC1CCCCCC1,i
O=S(=O)(Cc1ccccc1)Nc1ccccn1,6%
Cc1cc(C)c(NC(=O)Cn2nnc(-c3ccccc3)n2)c(C)c1,i
Cc1occc1C(=O)Nc1cc(Cl)ccc1Cl,i

More results:
compound,Mtb growth
CCn1c2ccc(C)cc2c2nc(C)sc21,25%
COC(=O)c1ccccc1NC(=O)NC1CCN(Cc2ccccc2)CC1,i
Cc1ccccc1OC1C(=O)N(CC2CCCO2)C1c1ccc2c(c1)OCO2 (stereo not given),i
Oc1ccc(/C=C/c2nc(-c3ccccc3O)n(-c3ccccc3)n2)cc1,5.6µg/mL*
Cc1cccc(NC(=O)CN(c2ccc(I)cc2)S(C)(=O)=O)c1,i
CC(=O)NC(=S)Nc1cccc(C#N)c1,i
CN(c1ccc(C(=O)Nc2ccccc2C(=O)NC2CCCCC2)cc1)S(=O)(=O)c1ccccc1,i
Cc1c(CCC(=O)O)c(=O)oc2cc(OC/C=C/c3ccccc3)ccc12,i
CC(C)c1ccc(S(=O)(=O)Nc2ccc(I)cc2)cc1,7%
COC(=O)c1sccc1NC(=O)c1ccc(-c2ccccc2)cc1,i
COC(=O)c1ccccc1NC(=O)NN1CCOCC1,i
CCOC(=O)Cc1nnc(NC(=O)CSC2=NCCS2)s1,i
Cc1ccccc1OCc1nn2c(-c3ccccc3)nnc2s1,5%
COc1ccc(NC(=O)c2ccccc2NC(=O)CSc2ccc(Cl)cc2)cc1,i
O=c1c(-c2cccs2)[n+]([O-])c2ccccc2n1OCc1ccccc1Cl,0%
COc1ccc(NC(=O)c2ccccc2NC(=O)COc2ccccc2)cc1,i
CCOc1cc(CO)cc(Br)c1OCC(=O)Nc1ccc(OC)cc1,i
CCC(C)NC(=O)c1ccccc1NC(=O)c1ccccc1C (stereo not given),i
Cc1ccccc1C(=O)Nc1ccccc1C(=O)NC1CCCCC1,i
COc1ccc(NC(=O)Nc2ccncc2)c(OC)c1,2%

(next part)
structure	Mtb growth
Clc1ccc(-c2csc(Cc3nc(-c4ccccc4)cs3)n2)cc1	i
O=C(CN1C(=O)c2ccccc2S1(=O)=O)Nc1ccc2c(c1)OCCO2	i
CCn1cc(CN(C)C(=S)Nc2sc3c(c2C(=O)OC)CCC(C)C3)c(C)n1 (stereo not given)	1%
COc1cc(C2NC(=S)NC(C)=C2C(C)=O)ccc1OC1CCCC1 (stereo not given)	i
COc1ccc(C2CC(=O)C3=C(C2)Nc2ccccc2NC3c2ccc(OCc3ccccc3)c(OC)c2)cc1OC (stereo not given)	42%
CCOC(=O)C1=C(c2ccccc2)NC(=S)NC1c1ccc(OCC(=O)O)cc1 (stereo not given)	i
CN(c1ccc(C(=O)NCc2ccncc2)cc1)S(C)(=O)=O	i
CCc1ccc2c(c1)c1n[nH]c(=S)nc1n2C	i
O=C(Nc1nc2c(s1)CCc1ccccc1-2)c1ccccc1Cl	i
CC(=O)c1c(C(C)=O)c(C)n(-c2ccc3ncccc3c2)c1C	i
Nc1nnc(SCC(=O)c2cccc([N+](=O)[O-])c2)s1	i
CCCCc1ccc(NC(=O)COc2cc(C)cc(C)c2)cc1	9%
O=C(Nc1ccc(Cl)cc1)Nc1cccs1	1%
CCOC(=O)Cn1cc(/C=C(/C#N)c2nc3ccc(OC)cc3[nH]2)c2ccccc21	0.74µg/mL*
CCc1cc2c(=O)c(-c3ccc4c(c3)OCCCO4)coc2cc1OC	i
COc1ccccc1-n1c(/C=C/c2ccccc2C)nc2ccc(I)cc2c1=O	i
CCCOc1ccc(C(=O)NC2CCCCC2)cc1OC	1%
Cc1cc(C)c(OCC(=O)Nc2ccc(N3CCN(S(C)(=O)=O)CC3)cc2)c(Br)c1	2%
CCC(Sc1ccccn1)C(=O)Nc1ccc(Cl)cc1 (stereo not given)	36%
CCN(CC)S(=O)(=O)c1cccc(C(=O)NC2=NCCS2)c1	1%
CC1(C)CC(=O)C2=C(C1)NC(SCC(=O)Nc1ccccc1)=C(C#N)C2c1ccco1 (stereo not given)	2%
CC1(C(=O)NCc2ccc3c(c2)OCO3)COC(c2ccccc2)OC1 (stereo not given)	i
CCCc1ccc(OCC(=O)Nc2nccs2)cc1	44%
CCOC(=O)c1cnc2c(OC)cccc2c1Nc1ccc2c(c1)OCCO2	10%
Cc1cccc(NC(=O)CN(c2ccc(I)cc2)S(C)(=O)=O)c1C	1%
CCc1c(C)c2ccc(OCc3cc([N+](=O)[O-])ccc3OC)c(C)c2oc1=O	i
CCCNS(=O)(=O)c1ccc(OC)c(C)c1	i
COc1ccc(C2CC(=O)C3=C(C2)Nc2ccccc2NC3c2coc3ccc(C)cc3c2=O)cc1 (stereo not given)	i
Cc1ccc2cccc(S(=O)(=O)Nc3c(C)n(C)n(-c4ccccc4)c3=O)c2n1	i
Cc1nc(CSc2nc3sc(C)c(C)c3c(=O)n2-c2ccccc2)cs1	i
CC1=NNC(=O)C1CCc1ccncc1 (stereo not given)	i
CCOc1ccc(N2CC(C(=O)Nc3ccccc3OCC)CC2=O)cc1 (stereo not given)	i
COc1cc(S(=O)(=O)Nc2ccc(C)cc2)ccc1NC(=O)CCc1ccccc1	i
CCCCc1ccc(NC(=O)C(=O)NCc2ccccc2OC)cc1	i
CCOc1ccccc1-c1nc(-c2ccc(NC(=O)Cc3ccccc3OC)cc2)no1	i
Cc1ccccc1CSCC(=O)Nc1ccccc1C(=O)NC1CCCCC1	i
O=C(NCCc1ccc(F)cc1)NC12CC3CC(CC(C3)C1)C2	0.21µg/mL*
CC(C)c1ccc(C(=O)NCCCN2CCOCC2)cc1	i
CC(NS(=O)(=O)N(C)C)c1ccccc1 (stereo not given)	i
CCCc1c(C)nc2c(OC)cccc2c1SCCC(=O)O	i
Cc1ccc(/C=C(/C#N)c2ccc(Cl)c(Cl)c2)o1	i
COc1ccc(C2(C(=O)Nc3ccc(C(=O)NCC4CCCO4)cc3)CCOCC2)cc1 (stereo not given)	i
COC(=O)c1c(-c2cccs2)csc1NC(=O)CN1CCOCC1	i
CCOC(=O)c1c(NC(=O)c2ccc(CN3CCOCC3)cc2)sc2c1CCCC2	0%
Cc1cc(OCC(=O)N2CC(C)OC(C)C2)ccc1Br (stereo not given)	i
CCCOc1ccc(C2NC(=S)NC(C)=C2C(=O)OC)cc1OCC (stereo not given)	i
Cc1ccc(C)c(OCC(=O)n2nc(C)cc2C)c1	i
Cc1ccc(OC(=O)c2ccc3snnc3c2)cc1	?
O=C(NCc1ccc2c(c1)OCO2)c1cccc(NC(=O)c2ccccc2)c1	i
O=C(Oc1ccc(Cl)cc1)c1cc2cc(Br)ccc2oc1=O	i

Later entries:
structure	Mtb growth
CCc1c(C)nc(SCc2cccc(C)c2)c(C#N)c1C	7%
O=C(Cn1c(C(F)(F)F)nc2ccccc21)NCCc1ccccc1	i
Cc1ccc(-c2csc(NC(=O)COc3c(C)ccc(C)c3C)n2)cc1	i
CN1C(=O)c2ccc(NC(=S)NC(=O)c3cccc(OCc4ccccc4)c3)cc2C1=O	i
COc1cccc(NC(=O)c2ccccc2-c2ccccc2C(=O)O)c1	i
Cc1oc2ccc(OCc3ccc(F)cc3Cl)cc2c1C(=O)O	21%
COc1ccc(C(=O)CSc2nnc(SCc3ccc(F)cc3)s2)cc1	i
O=C(Nc1ccccc1C(=O)N1CCN(Cc2ccccc2)CC1)c1ccc(F)cc1	i
Cc1cc(OCC(=O)N2CCOCC2)ccc1NC(=O)C1CCCCC1	i
C=CCn1c(SCC(=O)N2CCOCC2)nc2scc(-c3ccc(Cl)cc3)c2c1=O	i
COC(=O)c1c(NC(=S)NNC(=O)Cc2cccn2C)sc2c1CCC2	i
Cc1onc(-c2ccccc2Cl)c1C(=O)Nc1ccc(O)c(C(=O)O)c1	i
CCc1ccc(NC(=O)C23CC4CC(CC(C4)C2)C3)cc1	i
CCOC(=O)Cc1ccc2c(=O)c(Oc3ccc(F)cc3)coc2c1	33µg/mL*
COC(=O)c1sc2cc(NC(=S)N3CCN(C(=O)C4CCCO4)CC3)ccc2c1Cl (stereo not given)	i
COc1cc(NC(=O)CN(C)S(=O)(=O)c2ccc3ccccc3c2)cc(OC)c1	2%
COC(=O)c1sc2cc(NC(=S)Nc3ccc(Br)cn3)ccc2c1Cl	2%
C=CCn1c(SCc2csc(C)n2)nc2sc(C)c(C)c2c1=O	9%
CCn1nnc(NC(=S)NC(=O)c2ccc(C)cc2)n1	41%
O=C(Cc1ccccc1)Nc1ccccc1NC(=O)Cc1ccccc1	i
O=C(CCSc1nccn1Cc1ccccc1)N1CCCCC1	2%
CCOc1ccc(C(=S)N2CCOCC2)cc1OCC	i
